miR-21 FLuc: qHTS Assay for Modulators of miRNAs and/orActivators of miR-21 | Potency, µM (titrated, usually from 38.3 µM), for inactives: at the top dose reporter change, positive = more light | AID 2288, 2010 | HeLa miR-21 FLuc reporter, luciferase, 48 h | 340,000 tested, under 10 active; active = well fitted rising curve with a large enough effect; inconclusive = small, poorly fitted or top-dose-only effect; inactive = no such curve, though single readings can be large or run the other way;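 further: % of control where 0% means no effect; miR-21 action dims this reporter so a rising signal means less miR-21 action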
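HeLa cells endogenously expressing miR-21, stably carrying CMV-driven firefly luciferase with a downstream miR-21 binding site, 2000 cells/well. Titrations up to approximately 40 uM, 48 hours; luciferase luminescence read.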
GLA inh pH 4.5: qHTS Assay for Inhibitors of Human alpha-Galactosidase at pH 4.5 | purified enzyme, 4-MU-alpha-Gal fluorescence, pH 4.5 | AID 1467, 2008 | 230,000 tested, under 10 active | Alpha-galactosidase A (Homo sapiens), P06280 | activity change, negative = inhibition, % at 105 µM; inconclusive = small, poorly fitted or top-dose-only inhibition, or a rising curve; inactive = flat fitted curve, though single readings scatter; no compound was filed as active;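 further: 0% = full activity with enzyme and -100% = basal without enzyme; dose as in the result columns while the protocol names 77 µM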
Rango-impB inh: qHTS Assay for Inhibitors of Rango (Ran-regulated importin-beta cargo) - Importin beta complex formation; Rango CFP/YFP FRET sensor + importin beta, 45 min; Potency, µM (highest dose often 92.2 µM), inactives show at the highest dose inhibition of complex formation; actives 0.031% (n = 340,000); AID 540263, 2011; active = rising FRET ratio curve, often small or poorly fitted; inconclusive = mostly compound fluorescence or quenching in the first reads; inactive = flat curves in all reads;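 further: potency means the concentration at half of the fitted maximal effect; 0% = DMSO wells and 100% = buffer wells lacking importin beta; nearly all actives have a fitted effect of over 15% in size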
Target sequence (Q14974 whole entry, looked up): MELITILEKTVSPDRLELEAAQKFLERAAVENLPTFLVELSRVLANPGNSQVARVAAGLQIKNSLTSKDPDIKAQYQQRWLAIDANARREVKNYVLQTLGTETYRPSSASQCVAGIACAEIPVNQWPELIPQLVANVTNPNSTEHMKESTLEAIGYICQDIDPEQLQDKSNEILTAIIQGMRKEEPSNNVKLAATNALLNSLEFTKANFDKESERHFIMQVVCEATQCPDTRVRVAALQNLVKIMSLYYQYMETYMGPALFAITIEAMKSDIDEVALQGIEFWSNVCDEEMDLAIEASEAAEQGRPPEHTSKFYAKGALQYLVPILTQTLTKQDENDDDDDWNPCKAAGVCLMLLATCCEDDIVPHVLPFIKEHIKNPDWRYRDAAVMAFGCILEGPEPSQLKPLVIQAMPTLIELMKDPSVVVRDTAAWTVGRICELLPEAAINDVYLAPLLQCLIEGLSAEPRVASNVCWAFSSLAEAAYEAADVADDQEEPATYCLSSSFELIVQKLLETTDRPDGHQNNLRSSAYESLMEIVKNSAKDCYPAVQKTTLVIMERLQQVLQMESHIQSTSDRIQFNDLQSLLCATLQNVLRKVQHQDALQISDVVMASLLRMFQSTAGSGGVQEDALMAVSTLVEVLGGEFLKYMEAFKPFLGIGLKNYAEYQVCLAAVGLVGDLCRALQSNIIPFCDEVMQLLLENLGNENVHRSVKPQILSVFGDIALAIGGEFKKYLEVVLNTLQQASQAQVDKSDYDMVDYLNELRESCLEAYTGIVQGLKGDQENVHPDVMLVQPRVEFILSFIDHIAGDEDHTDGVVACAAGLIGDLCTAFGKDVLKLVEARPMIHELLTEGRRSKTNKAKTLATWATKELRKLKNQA
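Inhibition scored from the CFP 486 nm/YFP 530 nm FRET ratio 45 min after adding 0.125 microM importin beta to 50 nM Rango biosensor preincubated 5 min with compound (room temperature, PBS with DTT, Tween-20, BSA). No-importin wells as positive control.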
Rango dissoc inh: qHTS Assay for Inhibitors of RanGTP induced Rango (Ran-regulated importin-beta cargo) - Importin beta complex dissociation. AID 540253, 2011. actives 0.071% (n = 340,000). Biochemical FRET Rango-importin beta, RanGTP-induced dissociation. Snurportin-1 (Homo sapiens) + GTP-binding nuclear protein Ran (Homo sapiens) + Importin …. Potency, µM (doses to about 46.1 µM), inactives show top-dose activity change, negative = inhibition; active means falling FRET ratio curve, often poorly fitted, with flat reads before Ran was added; inconclusive means other falling curves, or compound fluorescence or quenching; inactive means flat or rising ratio curve;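 further: potency means the concentration at half of the fitted maximal effect; % of control where 0% means no effect; nearly all actives have a fitted effect of over 45% in size; -100% = wells without RanGTP and RCC1; the record marks most hits as doubtful in a second field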
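Quantitative HTS using a FRET biosensor: 0.1 uM Rango, 0.25 uM importin beta, 0.6 uM Ran, 2 mM GTP, 0.2 uM RCC1 final, PBS with DTT, Tween-20 and BSA. Post-read taken 45 min after Ran addition.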
Starred values were filed as active, the others as inactive; ? = inconclusive; . = not tested or not shown; & = joins results of further samples. These rows are one share of the data; the hit share may differ from the screen's.

cpd	structure	miR-21 FLuc	GLA inh pH 4.5	Rango-impB inh	Rango dissoc inh
1	O=C(CSc1ncn[nH]1)NCCC(c1ccccc1)c1ccccc1	-0.5%	5.1	0.1%	4.0%
2	Cc1ccc(NC(=O)Nc2ccc(Cl)c(Cl)c2)nc1	-48.4%	.	11.6%	-18.2%
3	CCc1c(C)nc2cc(-c3ccc(Cl)cc3)[nH]n2c1=O	-44.6%	.	-0.3%	7.1%
4	CCOC(=O)C1=C(C)NC(=O)NC1/C=C/c1ccccc1 (stereo not drawn)	-8.5%	9.6	-4.2%	0.6%
5	COc1ccc(NS(=O)(=O)c2cccc(C(=O)Nc3cccc(C(=O)O)c3)c2)cc1	-4.8%	.	1.1%	2.9%
6	O=C(O)CC1S/C(=N\N=C2CCCCCCC2)N(c2ccccc2)C1=O (stereo not drawn)	-10.4%	4.8	0.9%	2.7%
7	O=C(NC1CC1)c1nc(Cn2ccc([N+](=O)[O-])n2)no1	0.3%	.	-1.6%	-7.4%
8	CCCNC(=O)CS(=O)Cc1nc(-c2ccc(OC)cc2)oc1C (stereo not drawn)	-4.3%	4.9	-0.5%	0.7%
9	N/C(CC(=O)Nc1cccc(C(F)(F)F)c1)=N/O	-2.4%	7.2	3.7%	1.9%
10	COc1ccc(Cl)cc1NC(=O)N1CCC(C)CC1	1.6%	7.7	-0.1%	18.0%
11	O=C(CN1C(=O)c2cccnc2Oc2ccc(Cl)cc21)NC1CCCC1	-0.1%	.	-5.2%	0.7%
12	COc1ccccc1NS(=O)(=O)c1cccc(C(=O)N2CCN(C/C=C/c3ccccc3)CC2)c1	8.4%	.	-4.4%	-3.2%
13	O=C(NNc1ncnc2c1cnn2-c1ccc(F)cc1)c1ccco1	-3.8%	.	9.1%	1.6%
14	Cc1c(C)n(CC(O)CNc2ccccc2)c2ccccc12 (stereo not drawn)	-2.0%	-2.6	-0.2%	-12.4%
15	CCOC(=O)CN1C(c2ccccc2O)Nc2ccc(Br)cc2C1c1ccccc1 (stereo not drawn)	-7.8%	-3.1	-1.2%	11.3%
16	CCCCn1c(N)c(N(CCOC)C(=O)CCCc2cccs2)c(=O)[nH]c1=O	.	.	-1.9%	-9.3%
17	CCN(Cc1ccncc1)C(=O)Cc1cccs1	-3.6%	.	-0.7%	13.9%
18	Cc1ccc(C(=O)N2CCC(C(=O)NCc3cccnc3)CC2)cc1	-1.8%	0.4	-1.8%	0.9%
19	O=C(Nc1nncs1)C1CC(=O)N(C2CCCC2)C1 (stereo not drawn)	0.3%	.	2.1%	-0.3%
20	O=c1cc(CN2CCN(S(=O)(=O)c3ccccc3[N+](=O)[O-])CC2)nc2sccn12	-3.8%	-1.4	-2.8%	-1.3%
21	O=C(COC(=O)COc1ccccc1)NC1CCCc2ccccc21 (stereo not drawn)	-4.9%	3.9	0.2%	-9.2%
22	CCc1nc(NCCCn2ccnc2)c2oc3ccccc3c2n1	-16.3%	3.0	0.7%	3.1%
23	CC(C)NC(=S)N1CCN(C/C=C/c2ccccc2)CC1	-4.9%	7.4	-4.3%	-3.6%
24	CCOC(=O)/C(C#N)=C1\Nc2ccccc2N=C1N(CC(C)C)CC(C)C	1.4%	-8.3	?	?
25	CSc1c(CC(=O)Nc2ccccc2Cl)n(Cc2ccccc2)c2ccccc12	1.5%	-1.3	-2.5%	1.3%
26	COC(=O)c1c(NS(=O)(=O)c2ccc3ccccc3c2)sc2c1CCCC2	0.7%	-6.0	-0.9%	13.2%
27	COc1ccc(S(=O)(=O)N2CCOCC2)cc1C(=O)NC1CCCCCC1	.	.	-1.5%	8.3%
28	Cc1ccc(-c2csc(NC(=O)c3cccs3)n2)cc1	-29.4%	-1.2	-2.6%	-3.4%
29	COc1ccc(/C=N/NC(=O)C2(C)NC(C)(C)Cc3ccccc32)cc1 (stereo not drawn)	-1.4%	-19.0	0.1%	-23.8%
30	Cc1ccc2c(c1)N(CCC(=O)NC1CCCCC1C)C(=O)CO2 (stereo not drawn)	2.3%	.	2.1%	17.9%

Full records, looked up by structure. Order of values: miR-21 FLuc | GLA inh pH 4.5 | Rango-impB inh | Rango dissoc inh
Profile of `COc1ccc(S(=O)(=O)N2CCOCC2)cc1C(=O)NC1CCCCCC1` → . | . | -1.5% | 8.3%
Profile of `O=C(COC(=O)COc1ccccc1)NC1CCCc2ccccc21` (stereo not drawn) → -4.9% | 3.9 | 0.2% | -9.2%

Continuation:
cpd	structure	miR-21 FLuc	GLA inh pH 4.5	Rango-impB inh	Rango dissoc inh
31	CCOc1ccccc1Nc1nc(N)nc(CN(C)C2CCCCC2)n1	-6.2%	-4.8	0.2%	4.1%
32	CC1(C)C(=O)NCCN1C(=O)CCCC(=O)O	1.2%	3.8	0.6%	1.3%
33	CC(C)C[C@H]1COCCS(=O)(=O)N1Cc1cccc(C(F)(F)F)c1	.	.	4.8%	-17.1%
34	O=c1c2cc(NC(=S)NCCCN3CCC(Cc4ccccc4)CC3)ccc2nc2n1CCCCC2	9.8%	-10.9	-0.3%	-3.6%
35	Cc1cc(C)c(S(=O)(=O)N(C)CC(=O)NCCN2CCOCC2)c(C)c1	-0.4%	.	-4.4%	-12.9%
36	COc1ccc2c(c1)CCC1C2=NN(/C(C)=C/C(C)=O)C1c1cccc(F)c1 (stereo not drawn)	-27.6%	-1.2	?	-22.2%
37	S=c1[nH]nc(CCc2nc3ccccc3[nH]2)n1-c1cccc(Cl)c1	4.0%	2.4	0.0%	-15.0%
38	C[C@H](CO)N1C[C@H](C)[C@@H](CN(C)Cc2ccncc2)Oc2ccc(NC(=O)CCCCCC(=O)Nc3ccccc3N)cc2C1=O	.	.	-0.2%	-25.0%
39	N#CCCN(Cc1ccccc1)C(=S)Nc1ccc(F)cc1	-0.6%	3.5	-1.0%	1.7%
40	CC(C)(C)c1nc2c(s1)CCc1onc(-c3ccc(Cl)cc3)c1-2	.	.	4.8%	7.6%
41	COc1cc(/C=C/C(=O)OCC(=O)Nc2cc(C(F)(F)F)ccc2N2CCOCC2)ccc1O	-8.8%	-2.9	?	-14.1%
42	CC(C)(C)c1ccccc1NC(=O)c1c(O)c2cccc3c2n(c1=O)CC3	-9.2%	0.1	.	.
43	CCN(CC)S(=O)(=O)c1cccc(C(=O)Nc2nc3cc4c(cc3s2)OCCO4)c1	?	5.1	-2.8%	1.9%
44	CC1(C(=O)O)CCC(C(N)=O)C1(C)C (stereo not drawn)	0.7%	0.5	4.7%	-8.9%
45	CCCCC1=CC2=CC(=O)C(C)(OC(=O)CC)C(=O)C2=CN1CCCCO (stereo not drawn)	4.5%	-0.8&-13.7	?	-12.2%
46	CCOC(=O)c1cnc2ccc(Cl)cc2c1Nc1ccc(S(=O)(=O)Nc2ncccn2)cc1	-7.6%	0.5	-2.9%	1.2%
47	O=C(Nc1ccccc1)C1CCN(C(=O)c2ccc(Br)cc2)CC1	-4.3%	.	0.5%	-5.0%
48	O=C(CNC(=O)c1ccc(Cl)cc1)OCc1nc2ccccc2s1	-9.2%	-10.7	2.1%	11.6%
49	CCN(CC)c1ccc(/C=N/N=C(N)N)c(O)c1	19.4%	-5.6	?	?
50	CCOc1ccc(-c2c(C)n([O-])c3c([n+]2=O)CCCC3)cc1	-0.9%	-26.1	-0.2%	-11.0%
51	Cn1cnc([N+](=O)[O-])c1Sc1ccc(Br)cc1	29.0%	3.7	-0.5%	15.5%
52	COc1ccc(C)cc1S(=O)(=O)N(CC(=O)NCc1ccc(Cl)cc1)Cc1ccccc1	19.9%	-8.1	-1.0%	-19.6%
53	Clc1ccc(OCCCNCc2ccccc2)c2ccccc12	3.2%	.	-2.6%	-19.5%
54	O=C(COc1ccc2c3c(c(=O)oc2c1)CCC3)N[C@@H](CSCc1ccccc1)C(=O)O	0.4%	.	-0.9%	2.8%
55	CCOCCOc1cccc(C(=O)NC(C)c2ccc3ccccc3c2)c1 (stereo not drawn)	9.8%	.	-1.5%	-5.6%
56	Cn1c(=O)n(Cc2ccccc2F)c2ccccc21	-9.0%	-4.8	-1.3%	0.4%
57	COc1cc(O)c(C(CC(=O)N2CCN(c3ccccc3)CC2)c2ccc(N(C)C)cc2)c(OC)c1 (stereo not drawn)	8.2%	-11.0	2.0%	0.1%
58	CCN(CC)c1ccc2cc(C(=O)NNC(=O)c3ccc(S(=O)(=O)N4CCCCC4)cc3)c(=O)oc2c1	-3.7%	-23.2	?	?
59	Cn1c(N)c(C(=O)COC(=O)c2ccnc3ccccc23)c(=O)n(C)c1=O	-15.4%	6.7&9.4	-3.4%	34.0%
60	O=C(CSc1nncs1)NC1CCCCCCC1	.	.	?	20.8%

Fetched by structure from the list above:
cpd	structure	miR-21 FLuc	GLA inh pH 4.5	Rango-impB inh	Rango dissoc inh
56	Cn1c(=O)n(Cc2ccccc2F)c2ccccc21	-9.0%	-4.8	-1.3%	0.4%
52	COc1ccc(C)cc1S(=O)(=O)N(CC(=O)NCc1ccc(Cl)cc1)Cc1ccccc1	19.9%	-8.1	-1.0%	-19.6%
59	Cn1c(N)c(C(=O)COC(=O)c2ccnc3ccccc23)c(=O)n(C)c1=O	-15.4%	6.7&9.4	-3.4%	34.0%
40	CC(C)(C)c1nc2c(s1)CCc1onc(-c3ccc(Cl)cc3)c1-2	.	.	4.8%	7.6%

Back to the main list, repeating the 2 entries before the break.
cpd	structure	miR-21 FLuc	GLA inh pH 4.5	Rango-impB inh	Rango dissoc inh
59	Cn1c(N)c(C(=O)COC(=O)c2ccnc3ccccc23)c(=O)n(C)c1=O	-15.4%	6.7&9.4	-3.4%	34.0%
60	O=C(CSc1nncs1)NC1CCCCCCC1	.	.	?	20.8%
61	COC(=O)c1sccc1NS(=O)(=O)c1ccc(F)cc1F	-0.2%	.	-0.6%	2.1%
62	CC(=O)N1CCN(C(=S)c2ccc(Cl)cc2)CC1	0.4%	1.8	-4.1%	-2.5%
63	CC(C)c1nc(-c2ccccc2)c(-c2ccccc2)[nH]1	9.5%	3.8	0.1%	-10.9%
64	Cc1cc(C)cc(Nc2cc(=O)n(C3CCCCC3)c(=O)[nH]2)c1	4.9%	-4.5	7.8%	-4.8%
65	CCOC(=O)c1cc(-c2ccccc2)nc2nc(N(CC)CC)sc12	-12.9%	.	?	?
66	CS(=O)(=O)Nc1cccc(C2=NN(C(=O)c3ccco3)C(c3cccs3)C2)c1 (stereo not drawn)	9.1%	.	0.6%	-11.3%
67	CCOc1ccccc1NC(=O)c1ccc(OCC(=O)N2CCOCC2)c(OC)c1	.	.	3.2%	22.9%
68	O=C(CCn1c(=O)c2ccccc2n(CC(=O)NCCC2=CCCCC2)c1=O)NCc1ccco1	-4.1%	7.9	-7.2%	-3.8%
69	Cc1c(C(=O)NC(Cc2ccccc2)c2nc3ccccc3[nH]2)cccc1[N+](=O)[O-] (stereo not drawn)	-1.1%	0.5	0.0%	1.4%
70	CC(C)[C@H](NC(=O)N1CCn2c1nc1ccccc12)C(=O)NCc1ccc2c(c1)OCO2	3.7%	.	0.3%	-4.0%

Some values from the results shown:
Entry for `Cc1cc(C)cc(Nc2cc(=O)n(C3CCCCC3)c(=O)[nH]2)c1` in GLA inh pH 4.5: -4.5
Entry for `CC(C)c1nc(-c2ccccc2)c(-c2ccccc2)[nH]1` in Rango dissoc inh: -10.9%
Entry for `CCOc1ccccc1NC(=O)c1ccc(OCC(=O)N2CCOCC2)c(OC)c1` in Rango dissoc inh: 22.9%
Entry for `CCOC(=O)c1cc(-c2ccccc2)nc2nc(N(CC)CC)sc12` in miR-21 FLuc: -12.9%
Entry for `O=C(CCn1c(=O)c2ccccc2n(CC(=O)NCCC2=CCCCC2)c1=O)NCc1ccco1` in Rango dissoc inh: -3.8%
Entry for `Cc1c(C(=O)NC(Cc2ccccc2)c2nc3ccccc3[nH]2)cccc1[N+](=O)[O-]` (stereo not drawn) in Rango dissoc inh: 1.4%
